From PubChem BioAssay
Mtb bLac sens: beta-lactam sensitization of Mtb H37Rv. M. tuberculosis H37Rv growth with meropenem, percent inhibition; hits of this screen are not shown here. inhibition, % at 25 µM. 330,000 compounds, 0.27% hits;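 active means about 74% or more and at least 40 points above the plate without the antibiotic, then above 30% in a dose series; inconclusive means first-round hits that could not be retested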;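 further: growth measured after seven days incubation then overnight dye step; 0% = bacteria only wells and 100% = bacteria with antibiotic; twin plates without the antibiotic show which effects depend on it; some results filed as inactive read as strong as hits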
Numbers without * were called inactive; ? = inconclusive. The list is partial (hit frequency here may not be typical).

SMILES	Mtb bLac sens
COc1ccc(-c2oc(=O)c3cc(OC)c(OC)cc3c2/C=C/c2ccc([N+](=O)[O-])cc2)cc1	-1.3
Cc1cccc(C)c1NC(=O)COC(=O)c1c(C)nn(-c2ccccc2)c1C	-2.7
Cc1sc2ncn(CC(=O)N3CCN(c4ccccn4)CC3)c(=O)c2c1S(=O)(=O)N1CCC(C)CC1	-5.9
CCOc1ccc(OCCNC(=O)c2oc3ccccc3c2COC)cc1	41.8
CCCN(C(=O)c1cnccn1)c1c(N)n(Cc2ccccc2)c(=O)[nH]c1=O	-1.3
Cc1cccc(Nc2nnc(SCC(=O)c3c(N)n(C4CC4)c(=O)[nH]c3=O)s2)c1C	-3.2
COc1ccc(Nc2ncnc3sccc23)cc1	6.0
CCCCN1C(=N)N([C@@H](CCC)CN2CCC[C@H]2CN2C(N)=NC[C@H]2CC(C)C)C[C@H]1Cc1ccccc1	78.1
CCN(CC(=O)Nc1c(F)cccc1F)C(=O)CCCc1nc2ccccc2c(=O)[nH]1	-7.6
C[C@@H]1CN([C@@H](C)CO)C(=O)c2cccc(NC(=O)c3ccncc3)c2O[C@@H]1CN(C)Cc1ccc(-c2ccccc2)cc1	1.1
C[C@H]1CN([C@@H](C)CO)C(=O)c2cc(NC(=O)C3CCCCC3)ccc2O[C@H]1CN(C)S(=O)(=O)c1ccccc1	-2.0
O=C(COC(=O)c1ccc(O)cc1O)NNC(=O)c1cccs1	-1.2
NC(=O)C1CCN(c2nc(-c3ccccc3F)cs2)CC1	-1.6
COC(=O)c1ccc(CNC(=O)c2ccc(OC)c(S(=O)(=O)NC3CCCC3)c2)cc1	3.6
CC(C)n1ncc2c(C(=O)N3CCN(Cc4ccc(Br)s4)CC3)cc(C3CC3)nc21	13.7
CCN(C[C@H]1N[C@@](CC)(C(=O)OC)[C@H]2C(=O)N(C)C(=O)[C@@H]12)C(=O)COC	4.3
Cc1noc(C)c1NC(=O)Nc1ccc2c(c1)C(=O)N([C@H](C)CO)C[C@H](C)[C@@H](CN(C)C(=O)Nc1ccc3c(c1)OCO3)O2	0.0
O=S(=O)(Nc1cc(S(=O)(=O)N2CCOCC2)ccc1Cl)c1ccccc1	-0.2
C[C@H](CO)N1C[C@H](C)[C@@H](CN(C)C(=O)Nc2ccccc2)Oc2ccc(NC(=O)CCN3CCOCC3)cc2C1=O	-3.0
O=C(NC(=S)Nc1ccccc1F)C1CCCCC1	?
C#CCOCCOCCOCCNc1nc(N2CCN(C(=O)CCCCCCCCCCNC(=O)[C@H](CCCCN)n3cc(CCCC(=O)O)nn3)CC2)nc(N2CCN(C(=O)CCCCCCCCCCNC(=O)[C@@H]([C@H](C)O)n3cc(C)nn3)CC2)n1	-3.6
CC(C)(OC(=O)c1ccc(F)cc1)c1cc2ccccc2c(=O)o1	0.7
CS(=O)(=O)c1ccc(Cl)c(NC(=O)CSc2nnc(-c3cccs3)n2N)c1	-3.3
ClCCOCCCl	-5.9
O=C(Nc1cc([N+](=O)[O-])ccc1F)C1CCN(S(=O)(=O)c2cccs2)CC1	-2.0
COc1cc(Cl)c(C)cc1NC(=O)COC(=O)c1ccc(CN2CCCC2=O)cc1	-4.2
CC(=O)c1ccc(N(CC(=O)NC2CCS(=O)(=O)C2)S(=O)(=O)c2ccc(Cl)cc2)cc1 (stereo not drawn)	-6.9
CC(Cn1cncn1)C(=O)N1CCN(S(=O)(=O)c2ccccc2)CC1 (stereo not drawn)	-2.3
CC(NC(=O)COC(=O)CCC(=O)c1ccc(Cl)cc1)c1ccccc1 (stereo not drawn)	6.0
Cc1cc(C)c(N=Cc2c(O)[nH]c(=O)[nH]c2=O)c(C)c1	0.7
CC(=O)Oc1c(C)c(C)c2c(c1C)CCC(C)(CCCC(C)CCCC(C)CCCC(C)C)O2 (stereo not drawn)	2.1
CCC1(CC)NC(=O)N(CC(=O)N2CCN(c3ccccc3F)CC2)C1=O	1.5
CC1CN(CCOCCOc2ccccc2-c2ccccc2)CC(C)O1 (stereo not drawn)	-4.2
CSc1ncccc1C(=O)OCC(=O)N1CCN(S(=O)(=O)c2ccc(C)cc2C)CC1	-15.5
Cc1ccc(CN(C)C(=O)c2cccc(S(=O)(=O)N3CCc4ccccc4C3)c2)o1	-1.3
Cc1cc(C(=O)COC(=O)/C=C/c2ccc(F)cc2)c(C)n1C	-2.0
CC(=O)c1ccc(Cl)c(Cl)c1Cl	-1.5
NC(=O)CC[C@H](NC(=O)c1ccc(Cl)cc1)C(=O)NNC(=O)COc1cccc(Br)c1	0.2
COc1cccc(CNC(=O)C2CCCN(C(=O)c3ccc(Cl)cc3)C2)c1 (stereo not drawn)	-2.0
Cc1ccccc1-c1cc(C(=O)NCc2ccco2)n(CC2CC(c3cccnc3)=NO2)n1 (stereo not drawn)	0.2
COc1ccc(C(=O)C(C)OC(=O)CCN2C(=O)C3CC=CCC3C2=O)cc1 (stereo not drawn)	-6.4
Cc1ccccc1NC(=O)c1ccc(C)c(S(=O)(=O)Nc2cccnc2)c1	?
CSCCC(NC(=O)c1ccco1)C(=O)NCCc1ccc(F)cc1 (stereo not drawn)	-5.8
COc1cccc(C2c3[nH]c4ccccc4c3C[C@H]3C(=O)N(c4ccccc4C(=O)NCCCN4CCOCC4)C(=O)N23)c1 (stereo partly drawn)	-3.2
CC(OC(=O)c1ccc2c(=O)n3c(nc2c1)CCC3)C(=O)Nc1ccc(C(N)=O)cc1 (stereo not drawn)	6.6
CCCNC(=O)C(Cc1cccc(Cl)c1)NC(=O)c1ccccc1 (stereo not drawn)	4.2
COc1cccc2cc(C(=O)OCC(=O)N3CC(C)OC(C)C3)c(=O)oc12 (stereo not drawn)	-2.2
CCc1ccc(NC(=O)COC(=O)c2nc3nc(C)cc(C)n3n2)cc1	0.8
CC(C)C(NC(=O)c1ccc(C(C)(C)C)cc1)C(=O)N1CCCC1 (stereo not drawn)	4.3
CC(C)c1ccc(CNn2cnnc2)cc1	-7.6
Later entries:
SMILES	Mtb bLac sens
Cc1nc(SC(C)C(=O)Nc2c(C)n(C)n(-c3ccccc3)c2=O)nc(C)c1C (stereo not drawn)	2.3
CCSc1oc(-c2ccco2)nc1S(=O)(=O)c1ccc(C)cc1	1.1
COc1ccccc1CNC(=O)COC(=O)c1cc(=O)c2ccccc2o1	-8.4
CC(C)CN(C(=O)CN(C)CC(=O)Nc1ccccc1C#N)c1c(N)n(CC(C)C)c(=O)[nH]c1=O	2.0
C=CCN(c1ccccc1OC)S(=O)(=O)c1cccc(C(=O)OCC(=O)N2CCOCC2)c1	-6.8
CCCCN(C(=O)C1CCC1)c1c(N)n(Cc2ccccc2)c(=O)[nH]c1=O	-8.5
COc1cc(OC)cc(C(=O)NNC(=O)CCNS(=O)(=O)c2ccc(Br)cc2)c1	0.6
COc1cccc(NC(=O)CN2C(=O)NC3(CCc4ccccc43)C2=O)c1 (stereo not drawn)	-0.6
COc1ccc(C(=O)OCC(=O)NC23CC4CC(CC(C4)C2)C3)c(OC)c1OC	3.8
CCCN1C(=O)C(=O)c2cc(Cl)ccc21	3.6
CC(=O)Nc1ccc(S(=O)(=O)N[C@@H](C)C(=O)OCC(=O)NC2CCCC2)cc1	-3.8
C[C@H](CO)N1C[C@H](C)[C@@H](CN(C)S(=O)(=O)c2cn(C)cn2)Oc2ccc(NC(=O)Cn3cnnn3)cc2C1=O	-1.3
CCC(C)Sc1cccc(-c2nc3cc(C)ccn3c2NC2CCCCC2)c1 (stereo not drawn)	86.9
Cc1nn(-c2ccc(C(=O)NCC(c3ccco3)N3CCCC3)cc2)c(C)c1Cl (stereo not drawn)	-11.7
CC1CCCN(C(=O)C2CCN(c3nc(-c4ccccc4)nc4c3CCC4)CC2)C1 (stereo not drawn)	?
CC(C)(C)c1ccc(C(=O)NCCC(=O)NNC(=O)COc2ccccc2F)cc1	-0.5
Cc1ccc(CN(C)C(=O)CN2C(=O)NC(c3ccccc3)(c3ccccc3)C2=O)c(C)c1	8.2
CC(C)(C)OC(=O)C[C@@H]1C/C=C\C[C@@H](CC(=O)N(CCO)Cc2ccccc2)C(=O)N[C@H](Cc2ccccc2)COC1=O	-3.0
O=C(c1ccc2ccccc2n1)N1CCN(S(=O)(=O)c2ccc(Cl)cc2)CC1	-4.2
O=C(COC(=O)CC1CC2CCC1C2)Nc1ccc(Cl)c(S(=O)(=O)N2CCOCC2)c1 (stereo not drawn)	6.0
O=C(C1=COCCO1)N1CCN(S(=O)(=O)c2cccc(Br)c2)CC1	2.4
CC(=O)Nc1ccc(S(=O)(=O)N(C)CC(=O)N/N=C/c2ccncc2)cc1	9.8
C=CC[C@@H](CC(=O)N[C@@H](CO)Cc1ccccc1)C(=O)N[C@@H](C)COC(=O)[C@@H](CC=C)Cc1ccc(F)cc1	-8.6
C=CCc1cc(OC)ccc1OCCN1CC(C)OC(C)C1 (stereo not drawn)	-7.8
COc1cccc(-c2c(-c3cc(OC)cc(OC)c3)n(C)c3ccc(-c4ccc5[nH]ccc5c4)cc23)c1	-8.1
Cc1cc(C(=O)NC2CCC(O)CC2)c(C)o1 (stereo not drawn)	-2.4
O=C(Cn1cc(C(F)(F)F)ccc1=O)Nc1ccc2c(c1)OCCO2	0.9
O=C(NCC1COc2ccccc2O1)c1cccc(S(=O)(=O)N2CCCCC2)c1 (stereo not drawn)	-2.3
CC(Sc1nc(N)cc(=O)[nH]1)C(=O)NNC(=O)c1cccc(Cl)c1 (stereo not drawn)	3.5
C[C@@H]1CN([C@@H](C)CO)C(=O)c2cccc(NC(=O)c3nc4ccccc4s3)c2O[C@@H]1CN(C)CC1CC1	1.4
CCOc1ccc(C(=O)NCCNC(=O)c2ccc(OCC)cc2)cc1	2.1
O=C(COC(=O)CNC(=O)c1ccccc1F)Nc1ccc2c(c1)OCO2	6.7
CCOCc1nnc(NC(=O)COc2ccc3c(c2)OCO3)s1	1.9
CC1CN(C(=O)COC(=O)/C=C/c2ccc(C(F)(F)F)cc2)CC(C)O1 (stereo not drawn)	-0.3
CCOC(=O)C1(c2ccccc2)CCN(CCC(=O)Nc2ccc(F)cc2)CC1	0.9
CCOc1ccc(S(=O)(=O)N2CCC(C(=O)NCc3ccccc3CN3CCCC3)CC2)cc1	3.0
COc1cc(C(=O)N[C@H](C(=O)Nc2nnc(C3CC3)s2)C(C)C)cc(OC)c1OC	-6.0
CC1(C)C(=O)Nc2ccccc2N1C(=O)COc1ccc(C#N)cc1	0.7
CCC(C)c1ccccc1N1CC(C(=O)NCCCn2nc(C)cc2C)CC1=O (stereo not drawn)	-4.4
COc1cc(C(=O)NCC(=O)NCCCSc2ccccc2)cc(OC)c1OC	-1.4
Cc1noc(NS(=O)(=O)c2ccc(NC(=O)c3ccc(N(C)C)cc3)cc2)c1C	25.1
CC(OC(=O)C1CCCC1)C(=O)Nc1ccc(C(N)=O)cc1 (stereo not drawn)	-1.9
Cc1csc(CNc2ncnc3ccc(-c4ccoc4)cc23)c1	-8.4
C=CCC[C@@H](Cc1ccc(F)cc1)C(=O)OC[C@H]1CCCN1C(=O)[C@@H](CC=C)CC(=O)N[C@H](CO)Cc1ccccc1	-0.8
CCC1CCC/C1=N\NC(=O)c1ccc(Cl)cc1 (stereo not drawn)	15.4
CCc1nnc(NC(=O)c2oc3ccc(Br)cc3c2C)s1	1.9
C#CCOCCOCCOCCNc1nc(N2CCN(C(=O)CCCCCCCCCCNC(=O)[C@H]([C@@H](C)CC)n3cc(CCCCN=C(N)N)nn3)CC2)nc(N2CCN(C(=O)CCCCCCCCCCNC(=O)[C@H](CCCCN)n3cc(C[C@@H](C)CC)nn3)CC2)n1	99.7
COCCOC(=O)c1c(NC(=O)COC(=O)c2ccc(C)o2)sc(C(N)=O)c1C	-0.9
COC(=O)c1ccc(NC(=O)c2cccnc2)cc1	3.5
CCc1ccc([C@@H]2CC=C(C(=O)O)[C@H](c3cccc(Cl)c3)N2S(=O)(=O)c2ccc(C)cc2)cc1	1.2
Following part:
SMILES	Mtb bLac sens
O=C(c1cc(Cl)nc2ccccc12)N1CCN(Cc2ccc3c(c2)OCO3)CC1	4.5
COCCN=C(NS(=O)(=O)c1cccs1)c1ccccc1Cl	-3.4
CS(=O)(=O)c1ccc(C(=O)NNC(=O)c2cc(-c3ccccc3)n[nH]2)cc1	-0.7
Cc1cc(NC(=O)CSc2[nH]c(=O)cc(C(F)(F)F)c2C#N)no1	-9.2
CC(=O)c1cccc(NC(=O)CNC(=O)Cc2cccc3ccccc23)c1	1.4
CN1CCN(S(=O)(=O)c2cccc(C(=O)N3CCN(c4ccccc4F)CC3)c2)CC1	-7.3

A second format for some results above.
SMILES,Mtb bLac sens
CCC(C)c1ccccc1N1CC(C(=O)NCCCn2nc(C)cc2C)CC1=O (stereo not drawn),-4.4
COc1cc(C(=O)NCC(=O)NCCCSc2ccccc2)cc(OC)c1OC,-1.4
Cc1noc(NS(=O)(=O)c2ccc(NC(=O)c3ccc(N(C)C)cc3)cc2)c1C,25.1
CC(OC(=O)C1CCCC1)C(=O)Nc1ccc(C(N)=O)cc1 (stereo not drawn),-1.9
Cc1csc(CNc2ncnc3ccc(-c4ccoc4)cc23)c1,-8.4
C=CCC[C@@H](Cc1ccc(F)cc1)C(=O)OC[C@H]1CCCN1C(=O)[C@@H](CC=C)CC(=O)N[C@H](CO)Cc1ccccc1,-0.8
CCC1CCC/C1=N\NC(=O)c1ccc(Cl)cc1 (stereo not drawn),15.4
CCc1nnc(NC(=O)c2oc3ccc(Br)cc3c2C)s1,1.9
C#CCOCCOCCOCCNc1nc(N2CCN(C(=O)CCCCCCCCCCNC(=O)[C@H]([C@@H](C)CC)n3cc(CCCCN=C(N)N)nn3)CC2)nc(N2CCN(C(=O)CCCCCCCCCCNC(=O)[C@H](CCCCN)n3cc(C[C@@H](C)CC)nn3)CC2)n1,99.7
COCCOC(=O)c1c(NC(=O)COC(=O)c2ccc(C)o2)sc(C(N)=O)c1C,-0.9
COC(=O)c1ccc(NC(=O)c2cccnc2)cc1,3.5
CCc1ccc([C@@H]2CC=C(C(=O)O)[C@H](c3cccc(Cl)c3)N2S(=O)(=O)c2ccc(C)cc2)cc1,1.2
O=C(c1cc(Cl)nc2ccccc12)N1CCN(Cc2ccc3c(c2)OCO3)CC1,4.5
COCCN=C(NS(=O)(=O)c1cccs1)c1ccccc1Cl,-3.4
CS(=O)(=O)c1ccc(C(=O)NNC(=O)c2cc(-c3ccccc3)n[nH]2)cc1,-0.7
